RE007 growth inh: less growth of the S. pombe RE007 Vpr strain | S. pombe RE007 Vpr strain, BacTiter-Glo ATP luminescence, 24 h; control for the full effect not named in the record | Potency, µM (top dose mostly 92.2 µM), inactives show at the top dose activity change, negative = less growth | hit rate 0.21% among 360,000; active = well fitted falling curve with a large enough effect; inconclusive = small, poorly fitted or top-dose-only effect; inactive = no such curve, though single readings can be large or run the other way;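 also: % is scaled to controls: 0 for no effect and ±100 for the full control effect; nearly all actives have a fitted effect of over 50% in size; the assay follows cell death caused by Vpr and the record does not say whether a fall means rescue or toxicity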
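Fission yeast strain RE007, carrying one chromosomally integrated HIV-1 vpr copy, was seeded at OD 0.01 in PMG+AL medium with 23 nL pinned compound. After 24 h at 30 °C and 99% humidity, viability was read by BacTiter-Glo luminescence.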
NS1 function inh: inhibitors of influenza NS1 protein function; S. cerevisiae slowed by influenza A NS1, growth recovery by OD600; Potency, µM (doses to about 46.1 µM), inactives show at the top dose activity, positive = more growth; hit rate 0.4% among 270,000; also: actives are rising curves; nearly all actives have a fitted effect of over 50% in size
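Compounds were scored for reversing the slow growth caused by influenza A NS1 in S. cerevisiae, measured by optical density at 600 nm. Assay medium contained 2% galactose at pH 6.0; NS1-free yeast of the same strain were the positive control.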
Cruzain inh noDet: cruzain (T. cruzi) inhibition without detergent | P25779 | purified cruzain, Z-FR-AMC fluorescence, no detergent | Potency, µM, for the others: max response, negative = inhibition, actives largely listed as inhibitors | hit rate 2.3% among 200,000; active = well fitted curve in the direction sought with a large enough effect; inconclusive = small, poorly fitted or top-dose-only effect, or another doubt; inactive = no such curve, though single readings can be large; an effect the other way counts as inactive or inconclusive;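 also: plate controls were enzyme without inhibitor for no effect and buffer without enzyme for full effect; nearly all actives have a fitted effect of over 40% in size; top concentration of the series not given in the record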
Target sequence (P25779 123-467 limits assumed): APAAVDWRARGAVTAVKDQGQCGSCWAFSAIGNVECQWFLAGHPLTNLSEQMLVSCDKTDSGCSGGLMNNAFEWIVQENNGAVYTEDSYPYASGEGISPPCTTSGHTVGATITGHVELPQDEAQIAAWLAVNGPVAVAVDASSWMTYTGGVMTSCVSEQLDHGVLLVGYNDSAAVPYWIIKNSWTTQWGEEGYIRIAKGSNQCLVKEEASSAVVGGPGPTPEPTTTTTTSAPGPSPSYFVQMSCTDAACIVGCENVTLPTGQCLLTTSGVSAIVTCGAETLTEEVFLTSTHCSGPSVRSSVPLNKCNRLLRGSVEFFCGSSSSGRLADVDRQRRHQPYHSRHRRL
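Purified cruzain at 1.5 nM, pre-incubated 15 min with compound at room temperature in 100 mM sodium acetate pH 5.5, 5 mM DTT, 0.00005% Triton X-100. Reaction started with 2 uM Z-FR-AMC; AMC fluorescence increase over 60 s gives rate.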
Marburg entry inh: inhibitors of Marburg virus binding or cell entry; Marburg virus pseudotyped entry inhibition, cell reporter; control for the full effect not named in the record; about a third of the inactives were read at about 46 µM; Potency, µM (top dose mostly 37.8 µM), inactives show at the top dose activity change, negative = inhibition, usual class: inhibitors; hit rate 1.8% among 300,000; AID 540276; active = well fitted inhibition curve with a large enough effect; inconclusive = small, poorly fitted or top-dose-only effect, or effect the other way; inactive = flat fitted curve, though single readings scatter; tested in HEK293 cells; about a fifth of its hits are not listed in these tables; also: % is scaled to controls: 0 for no effect and ±100 for the full control effect; luciferase read-out
SARS PLpro yeast: inhibitors of SARS-CoV papain-like protease in yeast | S. cerevisiae expressing SARS-CoV PLpro, growth rescue; control for the full effect not named in the record | hit rate 0.19% among 330,000 | Potency, µM (doses to about 32.9 µM), for inactives: at the top dose activity, positive = growth rescue | AID 485353; also: 0% is about no effect; nearly all actives have a fitted effect of over 55% in size; growth read by luminescence after 48 h
LASV entry inh: inhibitors of Lassa virus binding or cell entry | Lassa virus pseudotype entry inhibition, cell reporter; control for the full effect not named in the record | Potency, µM (doses to about 37.9 µM), inactives show top-dose activity change, negative = inhibition, hits mostly inhibitors | hit rate 1.2% among 300,000 | AID 540256; active means well fitted inhibition curve with a large enough effect; inconclusive means small, poorly fitted or top-dose-only effect, or effect the other way; inactive means flat fitted curve, though single readings scatter; tested in HEK293 cells; also: % is scaled to controls: 0 for no effect and ±100 for the full control effect; nearly all actives have a fitted effect of over 50% in size; luciferase read-out
Cruzain inh Det: inhibitors of Trypanosoma cruzi cruzain with detergent. P25779. purified cruzain, Z-FR-AMC fluorescence, 0.01% Triton. Potency, µM, without a hit: max response, negative = inhibition, usual class: inhibitors. hit rate 0.43% among 200,000. AID 1478; active = well fitted curve in the direction sought with a large enough effect; inconclusive = small, poorly fitted or top-dose-only effect, or another doubt; inactive = no such curve, though single readings can be large; an effect the other way counts as inactive or inconclusive;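 also: plate controls were neutral wells for no effect and buffer without enzyme for full effect; nearly all actives have a fitted effect of over 40% in size; top concentration of the series not given in the record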
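Cysteine protease activity tested under reducing, mildly acidic conditions (100 mM sodium acetate pH 5.5, 5 mM DTT) plus 0.01% Triton X-100. Cruzain 1.5 nM; substrate Z-FR-AMC 2 uM; 15 min compound preincubation at room temperature.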
StopGo reporter: FMDV 2A StopGo reporter, luciferase signal; human cells with a luciferase reporter of 2A StopGo recoding; control for the full effect not named in the record; Potency, µM (top dose mostly 57.9 µM), inactives show at the highest dose signal change, negative = less light; hit rate 1.2% among 410,000; AID 1159524; active = well fitted falling curve with a large enough effect; inconclusive = small, poorly fitted or top-dose-only effect; inactive = no such curve, though single readings can be large or run the other way; tested in HEK293T cells; also: % is scaled to controls: 0 for no effect and ±100 for the full control effect; nearly all actives have a fitted effect of over 45% in size; luciferase light after 4 h
Active calls of the source: *; ? = inconclusive; . = not tested or not shown; & = joins results of further samples; [ ] = remark or other dose. Unless noted, calls follow the shape of the dose curve; as a rule, active means well fitted rising curve with a large enough effect; inconclusive means small, poorly fitted or top-dose-only effect; inactive means no such curve, though single readings can be large or run the other way. Potency is read from the fitted curve at half-maximal effect.

SMILES	RE007 growth inh	NS1 function inh	Cruzain inh noDet	Marburg entry inh	SARS PLpro yeast	LASV entry inh	Cruzain inh Det	StopGo reporter
O=C(COc1ccc(-c2nnco2)cc1)Nc1cc([N+](=O)[O-])ccc1F	-1%	.	.	-13%[46.1 µM]	-11%	7%[46.1 µM]	.	-3%
Cc1ccc(Nc2nnc(-c3ccc(N4CCOCC4)c([N+](=O)[O-])c3)c3ccccc23)cc1	-11%	-11%	-25%	?	7%	?	-2.5%	-16%
CCCOP(=O)(c1ccc(N(C)C)cc1)C(O)c1ccncc1 (stereo unspecified)	0%	-2%	0%	-18%	-5%	-6%	1.5%	-9%
CC(C)=CCc1c(O)ccc2c1OC(c1ccc(O)c(O)c1)CC2=O (stereo unspecified)	3%	6%	.	.	1%	.	.	?
O=C(Nc1nncs1)c1cccc(S(=O)(=O)N2CCCCC2)c1	8%	3%	0%	-8%	-14%	-1%	-4.0%	-11%
CC(=O)NCCc1ccc(C(=O)Cn2cnc3ccccc3c2=O)cc1	19%	4%	.	21%[46.1 µM]	-2%	9%	.	33%[activator]
CC(C)(C)OC(=O)N1CCC(c2c(C(=O)NC3CC3)cnn2-c2ccc(Cl)cc2)CC1	7%	13%	.	?	-6%	?	.	-7%
O=C(C1CCCN(C2CC(=O)N(c3ccc(F)cc3)C2=O)C1)N1CCCC1 (stereo unspecified)	45µM*	-32%	.	?	-18%	?	.	-8%
CCCC(=O)N/C(N)=N/c1nc2ccccc2o1	-15%	-5%	.	?	-3%	?	.	22%
COC(=O)c1ccc(NC(CC(C)C)C(=O)OC)c([N+](=O)[O-])c1 (stereo unspecified)	3%	-17%	-4%	-6%	-7%	-18%	-7.1%	-14%
COC(=O)c1ccccc1NC(=O)c1ccc(-c2nc(COc3ccccc3)c(C)o2)cc1	.	.	5%	.	.	4%[46.1 µM]	8.3%	-9%
CC(=O)Nc1ccc(NC(=O)CSc2nnc(-c3cccs3)n2N)cc1	-6%	.	.	18%[46.1 µM]	-1%	11%	.	-6%
CCc1ccccc1NC(=O)N1CCC2(CC1)Oc1ccccc1C(=O)N2Cc1ccccc1F	.	.	0%	-29%[46.1 µM]	.	.	-0.7%	-22%
COc1ccccc1N=C1NC(=O)/C(=C/c2ccc(N(C)C)cc2)S1	5%	-8%	.	.	-7%	.	.	39%[activator]
CN(c1ccccc1)S(=O)(=O)c1ccc(Cl)c(C(=O)Nc2nn[nH]n2)c1	-13%	2%	.	.	0%	.	.	-6%
O=C(O)C1C2C=CC(C2)C1C(=O)NCc1ccccc1F (stereo unspecified)	15%	3%	.	7%[46.1 µM]	0%	-7%[46.1 µM]	.	11%
CC1=C(C(=O)OCC2CCCO2)C(c2ccc(C)cc2)C2=C(CC(C)(C)CC2=O)N1 (stereo unspecified)	13%	-1%	.	.	-2%	.	.	27%
COc1ccc(S(=O)(=O)N(CC(=O)Nc2ccc3c(c2)OCO3)c2ccccc2OC)cc1	1%	-18%	-10%	-24%&-24%	4%	-18%	-2.6%	-21%
COCc1nnc(NC(=O)c2cccc(NC(=O)C(C)C)c2)s1	8%	3%	.	9%[46.1 µM]	1%	1%[46.1 µM]	.	4%
O=C(CN1C(=O)NC2(CCCc3ccccc32)C1=O)NC1CCCCC1 (stereo unspecified)	14%	.	.	26%	8%	5%[46.1 µM]	.	6%
Cc1ccccc1CNC(=O)c1ccc2[nH]c(C)c(C)c2c1	.	.	?	.	.	?	-8.2%	35%[activator]
CCS(=O)(=O)N1CCCC(C(=O)NCCCOC)C1 (stereo unspecified)	14%	2%	-5%	-20%	1%	-2%	4.2%	-11%
CCCCOC(=O)Nc1ccc2c(C)cc(=O)oc2c1	-6%	-7%	27%	?	-13%	20%	7.8%	40%[activator]
CCOc1cc(-c2c(C#N)c(=O)[nH]c3c2c(C)nn3-c2ccc(F)cc2)ccc1O	13%	7.9µM*	-4%	?	1%	7%	-11%	?
Nc1c(/C=C2/C=CC(=O)C(O)=C2)c(=O)nc2sc(CC(=O)N3CCCCC3)nn12	8%	14µM*	.	.	11µM*	.	.	-7%
CCC(=O)c1ccc(OCC(=O)Nc2ccccc2C(=O)NC2CC2)cc1	16%	.	.	-5%	3%	-4%	.	-18%
Cc1cccc(C)c1NC(=O)CSc1nnc(-c2ccco2)c(-c2ccco2)n1	8%	?	-18%	?	0%	?	?	-18%
Cc1onc(-c2c(Cl)cccc2Cl)c1C(=O)NCc1ccccn1	6%	11%	-12%	-3%	2%	5%	-1.7%	-3%
O=C(Nc1cc(S(=O)(=O)N2CCOCC2)ccc1N1CCCC1)c1cccnc1Cl	19%	3%	.	.	-1%	.	.	18%
O=C1CC(NNC(=O)c2ccccc2)C(=O)N1 (stereo unspecified)	7%	9%	6%	-24%	-5%	-5%	-1.4%	1%
C=CCn1c(O)c(/C=N/NC(=O)c2ccncc2)c(=O)[nH]c1=O	-5%	0%	.	9%	2%	22%	.	-12%
C=CCNc1nc(C(=O)OCC(=O)c2cccc(Br)c2)cs1	-9%	.	.	-23%	-2%	-9%	.	3%
O=c1[nH]c(-c2ccc(Cl)cc2)nc(=S)[nH]1	-11%	1%	.	.	0%	.	.	18%
CCOC(=O)C1(CC2CCCCO2)CCN(Cc2cn[nH]c2-c2cccc(F)c2)CC1 (stereo unspecified)	13%	0%	.	.	1%	.	.	-24%
Cc1cc(N2C(=O)C(O)=C(C(=O)c3cc4ccccc4o3)C2c2cccs2)no1 (stereo unspecified)	-8%	-1%	.	-10%[46.1 µM]	-2%	8%	.	-4%
CC(C)OCCCNC(=O)c1ccc2c(=O)n(CCc3ccccc3)c(=O)[nH]c2c1	.	.	4%	?	.	0%[46.1 µM]	1.7%	-9%
COc1ccc(CCNC(=O)C(=O)c2cn(CC(=O)N3CCOCC3)c3ccccc23)cc1	-4%	-3%	.	-3%[46.1 µM]	8%	-12%[46.1 µM]	.	-17%
Cc1c(C)c2cc(Cl)c(OCC(=O)N3C[C@H]4C[C@@H](C3)c3cccc(=O)n3C4)cc2oc1=O	-17%	-9%	.	.	-1%	.	.	-9%
Cc1nn(Cc2ccccc2)c2sc(C(=O)NCc3cccnc3)cc12	0%	-20%	11%	-6%	4%	?	-3.6%	?
COC(=O)c1cc2oc3ccccc3c2n1Cc1nc(-c2ccc(Cl)cc2)oc1C	.	.	4%	7%[46.1 µM]	.	.	-0.1%	-27%
CC(C)C(NC(=O)c1ccc(C(C)(C)C)cc1)C(=O)OCC(=O)NC(=O)Cc1ccccc1 (stereo unspecified)	4%	-46%	14%	?	-10%	14%	-10%	1%
CCC(=O)c1ccc(OCCSc2ncccn2)cc1	-27%	-7%	-8%	-26%	-8%	?	2.1%	7%
Cc1ccc(N2C(=O)Nc3ccc(Br)cc3C2(O)C(=O)NCCN(C)C)cc1C (stereo unspecified)	0%	2%	.	-9%[46.1 µM]	0%	-1%[46.1 µM]	.	-15%
COc1ccc(-c2cc(=O)oc3cc(OCC(=O)NCC(O)c4ccccc4)ccc23)cc1 (stereo unspecified)	4%	2%	.	.	-2%	.	.	-7%
O=C(CSc1nnc(-c2ccc(O)cc2)o1)Nc1cccc(O)c1	78%	7%	.	?	2%	?	.	-10%
CCOc1ccc(/C=C/C(O)=C2/C(=O)NC3(C)CC2c2ccccc2O3)cc1OC (stereo unspecified)	7%	.	.	?	-2%	?	.	?
CSC1=NCCN1C(=O)COc1ccccc1	7%	0%	-3%	5%	-2%	.	-0.8%	-4%
O=C(N/N=C/c1ccccn1)c1ccc(NC(=O)c2ccc(F)cc2)cc1	7%	8%	.	26%[46.1 µM]	3%	5%[46.1 µM]	.	-5%
CN(CCCN1CCOCC1)C(=O)c1cc(COc2cccc(C(F)(F)F)c2)on1	-16%	1%	.	.	3%	.	.	-6%
c1ccc(-c2nnc(-c3ccccc3)o2)cc1	?	-22%	-6%	-14%[46.1 µM]	0%	-26%	3.8%	24%

Additional records follow.
SMILES	RE007 growth inh	NS1 function inh	Cruzain inh noDet	Marburg entry inh	SARS PLpro yeast	LASV entry inh	Cruzain inh Det	StopGo reporter
CN(C(=O)CSc1nnc(-c2ccccc2)o1)c1c(N)n(Cc2ccccc2)c(=O)[nH]c1=O	-14%	-5%	.	-3%[46.1 µM]	-4%	.	.	-1%
O=C(Nc1ccc([N+](=O)[O-])cc1)N1CCN(C(=O)C2CCCO2)CC1 (stereo unspecified)	37%	7%	.	5%	2%	2%	.	-20%
CC(=O)Nc1ccc(S(=O)(=O)NC2CC2)cc1	17%	11%	.	3%[46.1 µM]	2%	3%[46.1 µM]	.	34%[activator]
O=C(CC1N=C2c3ccccc3N=C(SCc3ccc(F)cc3)N2C1=O)NCc1ccc2c(c1)OCO2 (stereo unspecified)	.	.	-8%	.	.	-2%[46.1 µM]	-2.3%	3%
CCOc1ccccc1C(=O)NC(C(=O)N(C)Cc1ccc2c(c1)OCO2)C(C)C (stereo unspecified)	11%	.	.	?	1%	?	.	?
CC(C)N1C(=S)N(Cc2ccco2)C(=O)C1CC(=O)Nc1ccccc1 (stereo unspecified)	?	.	.	2%[46.1 µM]	-1%	-14%	.	-5%
CCOC(=O)c1c(S(=O)(=O)NCC2CCN(CCc3cccs3)CC2)c(C)n(C)c1C	31%	8%	.	.	3%	.	.	0%
Nc1c(C(=O)Nc2ccc(F)c(Cl)c2)sc2nc3c(cc12)N1CCC3CC1	.	.	12%	?	.	?	-11%	?
COc1ccc(NC(=O)CNS(=O)(=O)c2ccccc2)cc1Cl	-1%	-4%	-1%	17%	1%	-4%	1.6%	5%
O=C(N/C(=C/c1cccnc1)C(=O)N1CCCCCC1)c1cccc(Br)c1	0%	21%	.	0%	2%	-29%	.	38%[activator]
CCCC(=O)NC(=S)Nc1ccc(NC(=O)c2cccs2)cc1	7%	-16%	-4%	5%	6%	0%	-1.1%	22%
CC(C)c1ccc(NC(=O)N2c3ccccc3Sc3ccccc32)cc1	.	.	-8%	6%[46.1 µM]	.	-2%[46.1 µM]	0.6%	-6%

Screens from PubChem BioAssay.
